High-throughput results from PubChem.
Vaccinia Venus = vaccinia inhibition (Venus reporter) | Vaccinia virus Venus reporter expression, fluorescence | Potency, µM (top dose mostly 36.5 µM), for the others: at the highest dose activity change, negative = inhibition, hits mostly inhibitors | 0.46% of 330,000 active; active means well fitted inhibition curve with a large enough effect; inconclusive means small, poorly fitted or top-dose-only effect; inactive means no such curve, though single readings can be large or run the other way; tested in A549 cells; further: nearly all actives have a fitted effect of over 30% in size; inactives centre near -10
VACV mCherry inh = vaccinia inhibition (mCherry reporter). Vaccinia virus mCherry reporter infection, fluorescence; about a quarter of the inactives have no number. 0.63% of 310,000 active. Potency, µM (doses to about 36.5 µM), inactives show top-dose activity change, negative = inhibition, hits mostly inhibitors; active = well fitted inhibition curve with a large enough effect; inconclusive = small, poorly fitted or top-dose-only effect; inactive = no such curve, though single readings can be large or run the other way; tested in A549 cells; further: nearly all actives have a fitted effect of over 35% in size; inactives centre near -10
* = called active by the depositor; & = joins results of further samples; [ ] = another dose, or the depositor's remark. On the % scale 0 is the no-effect control and ±100 the full control effect; potency means the concentration at half of the fitted maximal effect.

`Cc1cnc2c(c1SCC(=O)N(C)c1ccccc1)c(=O)n(C)c(=O)n2C` gave Vaccinia Venus 0% and VACV mCherry inh -13%.
For COc1ccc(C(C#N)CC(=O)c2ccc3c(c2)OCO3)cc1OC (configuration not stated) the results were Vaccinia Venus -11% and VACV mCherry inh inactive.
Cc1nc(C(=O)N2CCc3c([nH]c4ccccc34)C2c2cc(F)ccc2F)cs1 (configuration not stated) was read as Vaccinia Venus -11% and VACV mCherry inh inconclusive.
O=C(c1cc2sccc2n1Cc1ccccc1)N1CCN(c2nc3ccccc3s2)CC1 was read as Vaccinia Venus inconclusive and VACV mCherry inh inconclusive.
For O=C(NCCc1ccc(Cl)cc1)C1CCN(S(=O)(=O)N2CCC3(CC2)OCCO3)CC1 the results were Vaccinia Venus -9% and VACV mCherry inh -24%.
Screening O=C1NC[C@H](CCCCN2CCN(Cc3ccccc3)C(=O)C2=O)N(Cc2ccccc2)C1=O returned Vaccinia Venus 11% and VACV mCherry inh 16%.
Screening COc1cc2c(cc1OC)CN(C(=S)NC(=O)c1ccccc1)CC2 returned Vaccinia Venus -16% and VACV mCherry inh -4%.
For Cc1ccc(NS(=O)(=O)c2cccc(C(=O)N3CCCC(C)C3)c2)cc1 (configuration not stated) the results were Vaccinia Venus -10% and VACV mCherry inh -14%.
CCCCN(CCCC)C1=Nc2ccccc2N/C1=C(/C#N)C(=O)OCC was read as Vaccinia Venus 1%.
For O=C(NC1(C(F)(F)F)C(=O)Nc2c1c(=O)[nH]c(=O)n2-c1ccc(Cl)cc1)c1ccccc1F (configuration not stated) the results were Vaccinia Venus -5% and VACV mCherry inh -16%.
Nc1n[nH]c(CO)n1 was read as Vaccinia Venus -15% and VACV mCherry inh inactive.
`Cn1c(Cc2ccccc2)nnc1SCC(=O)Nc1cccc(S(=O)(=O)NC2=NCCCCC2)c1` gave Vaccinia Venus -3% and VACV mCherry inh -4%.
For CCN(CC(=O)NCc1cccs1)C(=O)c1cc(S(=O)(=O)N2CCCCC2)ccc1Cl the results were Vaccinia Venus -15% and VACV mCherry inh inactive.
`CCn1cc(/C=C(\NC(=O)c2ccccc2F)C(=O)N2CCN(C)CC2)c2ccccc21` gave Vaccinia Venus -17% and VACV mCherry inh -9%.
`COc1ccccc1CCNS(=O)(=O)c1c(C)n(C)c(=O)n(C)c1=O` gave Vaccinia Venus -9% and VACV mCherry inh -14%.
For O=C1CCN(C(=O)c2cccs2)c2ccccc21 the results were Vaccinia Venus -9% and VACV mCherry inh inactive.
For C[C@H](CO)N1C[C@H](C)[C@@H](CN(C)C(=O)Nc2ccc(C(F)(F)F)cc2)Oc2ccc(NC(=O)C3CC3)cc2C1=O the results were Vaccinia Venus -13% and VACV mCherry inh inactive.
`CCC1CCc2nc3sc(C(=O)Nc4ccc(F)c(Cl)c4)c(N)c3cc2C1` (configuration not stated) gave Vaccinia Venus 5% and VACV mCherry inh -8%.
`O=C(c1ccc([N+](=O)[O-])s1)N1CCCc2ccccc21` gave Vaccinia Venus inconclusive and VACV mCherry inh 10µM*.
`COc1ccc(CC(=O)Nc2ccc(S(=O)(=O)Nc3ncccn3)cc2)cc1` gave Vaccinia Venus 9% and VACV mCherry inh -9%.
`Cc1cn([C@H]2C[C@H](O)[C@@H](CCC(=O)NCCc3cccs3)O2)c(=O)[nH]c1=O` gave Vaccinia Venus -6% and VACV mCherry inh 5%.
`Cc1ccc(OCC(=O)Nc2nnc(SCc3cc(=O)n4cccc(C)c4n3)s2)cc1` gave Vaccinia Venus -13% and VACV mCherry inh -15%.
`O=C(Nc1nc2ccccc2[nH]1)C1CCN(C(=O)c2ccc(F)cc2)CC1` gave Vaccinia Venus -16% and VACV mCherry inh -14%.
`Cc1ccccc1NC(=O)CCS(=O)(=O)c1cccc2nonc12` gave Vaccinia Venus 1% and VACV mCherry inh -14%.
Screening CCn1nnnc1SCC(=O)Nc1ccc2c(c1)OCCO2 returned Vaccinia Venus -8% and VACV mCherry inh inactive.
Screening O=C1C=C(c2ccc3c(c2)OCO3)CCC1 returned Vaccinia Venus -8% and VACV mCherry inh -24%.
For COC(=O)c1ccc(NC(=O)CSc2ccc(-c3ccccn3)nn2)cc1 the results were Vaccinia Venus -5% and VACV mCherry inh -6%.
`Cc1sc2nc(SCC(=O)OC(C)C)n(C)c(=O)c2c1C` gave Vaccinia Venus 2% and VACV mCherry inh -9%.
For CCN(CC)C(=O)C1=C(C)N(CCCN2CCCC2=O)C(=O)C(CC(=O)NC2CCCCC2)C1 (configuration not stated) the results were Vaccinia Venus -3% and VACV mCherry inh -8%.
Screening CC(=O)C1=CCC(c2cccs2)N(S(=O)(=O)c2ccc(C)cc2)C1 (configuration not stated) returned Vaccinia Venus -2% and VACV mCherry inh inactive.

A draw from above in order of heavy-atom count, descending:
For CCN(CC)C(=O)C1=C(C)N(CCCN2CCCC2=O)C(=O)C(CC(=O)NC2CCCCC2)C1 (configuration not stated) the results were Vaccinia Venus -3% and VACV mCherry inh -8%.
`Cc1ccc(OCC(=O)Nc2nnc(SCc3cc(=O)n4cccc(C)c4n3)s2)cc1` gave Vaccinia Venus -13% and VACV mCherry inh -15%.
`COc1ccc(CC(=O)Nc2ccc(S(=O)(=O)Nc3ncccn3)cc2)cc1` gave Vaccinia Venus 9% and VACV mCherry inh -9%.
For COC(=O)c1ccc(NC(=O)CSc2ccc(-c3ccccn3)nn2)cc1 the results were Vaccinia Venus -5% and VACV mCherry inh -6%.
Screening CC(=O)C1=CCC(c2cccs2)N(S(=O)(=O)c2ccc(C)cc2)C1 (configuration not stated) returned Vaccinia Venus -2% and VACV mCherry inh inactive.
Screening CCn1nnnc1SCC(=O)Nc1ccc2c(c1)OCCO2 returned Vaccinia Venus -8% and VACV mCherry inh inactive.
`Cc1sc2nc(SCC(=O)OC(C)C)n(C)c(=O)c2c1C` gave Vaccinia Venus 2% and VACV mCherry inh -9%.
`O=C(c1ccc([N+](=O)[O-])s1)N1CCCc2ccccc21` gave Vaccinia Venus inconclusive and VACV mCherry inh 10µM*.
Screening O=C1C=C(c2ccc3c(c2)OCO3)CCC1 returned Vaccinia Venus -8% and VACV mCherry inh -24%.

The list continues.
For COc1ccc(CN2CCCC(C(=O)N3CCCCC3)C2)c(OC)c1 (configuration not stated) the results were Vaccinia Venus -15% and VACV mCherry inh -24%.
Cc1cccc(NC(=O)CSc2nnc([C@@H]3CCCN3C(=O)OC(C)(C)C)o2)c1C was read as Vaccinia Venus -22%.
CCOC(=O)c1c(NC(=O)Cn2ccsc2=N)sc(C)c1C was read as Vaccinia Venus -16% and VACV mCherry inh -7%.
`COc1cccc(C(O)c2nc(/C=C/c3ccccc3)cs2)c1` (configuration not stated) gave Vaccinia Venus -3% and VACV mCherry inh 2%.
Screening CCOC(=O)c1sc2nc(C)n(N)c(=O)c2c1C returned Vaccinia Venus 11% and VACV mCherry inh 4%.
`O=C(COC(=O)Cn1cnc2ccccc2c1=O)NCC12CC3CC(CC(C3)C1)C2` gave Vaccinia Venus -8% and VACV mCherry inh -7%.
For CSc1nc2ccccc2n1CC(=O)N1CCCCC1 the results were Vaccinia Venus -11%.
CC(=O)N(C)c1nnc(-c2cnccn2)s1 was read as Vaccinia Venus -10% and VACV mCherry inh inactive.
For Cc1cccc(-c2nnc(SCCC(=O)N3CCOCC3)o2)c1 the results were Vaccinia Venus -19% and VACV mCherry inh -17%.
Screening COC(=O)CCCN1C(=O)NC(c2ccc(-c3ccccc3)cc2)C(C(=O)OCc2ccccc2)=C1C (configuration not stated) returned Vaccinia Venus -6% and VACV mCherry inh -7%.
Cc1ccc(NC(=O)Cn2c(=O)n(CC(=O)NCCc3ccccc3)c(=O)c3ccccc32)cc1 was read as Vaccinia Venus inconclusive and VACV mCherry inh inconclusive.
C/C(=N\NC(=O)c1cc(C2CC2)nc2ccccc12)c1ccc(C)s1 was read as Vaccinia Venus inconclusive and VACV mCherry inh inconclusive.
For COc1cccc(C=C(C(C)=O)C(=O)c2ccccc2)c1 the results were Vaccinia Venus -12% and VACV mCherry inh -6%.
`CCc1ccc(-c2csc(-c3cc4cc(Br)ccc4oc3=O)n2)cc1` gave Vaccinia Venus -4% and VACV mCherry inh -10%.
Screening CCc1c(C)nc(SCC(=O)Nc2ccc3c(c2)OCCO3)[nH]c1=O returned Vaccinia Venus -12% and VACV mCherry inh -19%.
Screening Cc1ccc(NC(=O)C2=CC(c3cccs3)=NS(=O)(=O)N2C)cc1 returned Vaccinia Venus -22%&-12% and VACV mCherry inh -5%&-8%.
Screening CSc1cccc(CN2CCN(Cc3ccc(F)c(F)c3)C(CCO)C2)c1 (configuration not stated) returned Vaccinia Venus 9% and VACV mCherry inh -13%.
Screening CCc1nn(CCCC(=O)Nc2ccc(C)c(C)c2)c(=O)c2cc3occc3n12 returned Vaccinia Venus -11% and VACV mCherry inh inactive.
`O=C(Oc1ccc2ccc(O)cc2c1)C1CCCCC1` gave Vaccinia Venus -2% and VACV mCherry inh 5%.
Screening CCC1CCCCN1S(=O)(=O)c1ccc(C(=O)Nc2nnc(-c3cccs3)o2)cc1 (configuration not stated) returned Vaccinia Venus inconclusive and VACV mCherry inh inconclusive.
For CCOc1ccc(C(=O)NCc2nc3cccnc3n2Cc2ccc(F)cc2)cc1OCC the results were Vaccinia Venus -6% and VACV mCherry inh -12%.
`Cc1cccc(N2CCN(C(=O)C3COc4ccccc4O3)CC2)c1C` (configuration not stated) gave Vaccinia Venus -4% and VACV mCherry inh inactive.
`C[C@@H]1CN([C@@H](C)CO)C(=O)c2cc(/C=C/c3ccccc3)cnc2O[C@@H]1CN(C)S(=O)(=O)c1ccc(F)cc1` gave Vaccinia Venus -15% and VACV mCherry inh inactive.
`COc1cccc(NC(=O)CSc2ncc3c(n2)-c2ccc(Cl)cc2N(C)S3(=O)=O)c1` gave Vaccinia Venus -15% and VACV mCherry inh -13%.
For COC(=O)C1=C(C)N(c2ccc(S(N)(=O)=O)cc2)C(=O)C1 the results were Vaccinia Venus 2%.
Screening Cc1c(C(=O)NCC(c2ccc(Cl)cc2)N2CCOCC2)oc2ccccc12 (configuration not stated) returned Vaccinia Venus -6% and VACV mCherry inh -1%.
For COc1ccc(-c2nnn(Cc3ccccc3F)n2)cc1 the results were Vaccinia Venus -13% and VACV mCherry inh -11%[1.46 µM].
O=C(COC(=O)c1ccc(F)c(S(=O)(=O)N2CCCCC2)c1)NCc1ccc(F)cc1 was read as Vaccinia Venus -17% and VACV mCherry inh inactive.
`O=c1[nH]c(SCc2ccc([N+](=O)[O-])cc2)nc2c1CCCC2` gave Vaccinia Venus 8% and VACV mCherry inh -8%.
Screening CC(=O)NC(CC(=O)NNC(=O)COc1c(C)cccc1C)c1ccccc1 (configuration not stated) returned Vaccinia Venus -18% and VACV mCherry inh -3%.
For Cc1ccc(Cl)cc1N1CCN(C(=O)c2cn(CC(C)C)c(=O)c3c2c2ccccc2n3C)CC1 the results were Vaccinia Venus inconclusive and VACV mCherry inh inconclusive.
Screening COc1cccc(NC(=O)NCc2ccc(F)cc2)c1 returned Vaccinia Venus -9% and VACV mCherry inh inactive.
Screening COC(=O)Nc1[nH]ncc1[N+](=O)[O-] returned Vaccinia Venus -5% and VACV mCherry inh 2%.
CCOc1ccccc1NC(=O)CN1CCCN(Cc2cccc(Cl)c2)S1(=O)=O was read as Vaccinia Venus -14% and VACV mCherry inh -18%.
`C=C1CC2(OC1=O)c1ccccc1CCc1ccccc12` gave Vaccinia Venus 14µM* and VACV mCherry inh inconclusive.
`COC(=O)C(NS(=O)(=O)c1ccc(F)cc1)c1ccccc1` (configuration not stated) gave Vaccinia Venus -11% and VACV mCherry inh -22%.
O=S(=O)(Cc1ccccc1Cl)N1CCCC1 was read as Vaccinia Venus -20% and VACV mCherry inh inactive.
`Cc1cccc(N2CCN(Cc3nc(-c4ccc(F)cc4F)oc3C)CC2)n1` gave Vaccinia Venus -13% and VACV mCherry inh -26%.
`O=C(/C=C/c1ccccc1)c1cc(Br)ccc(=O)c1O` gave Vaccinia Venus inconclusive.
For Cn1c2c(c(=O)n(C)c1=O)C(c1ccccc1F)C(C#N)=C(N)O2 (configuration not stated) the results were Vaccinia Venus -11% and VACV mCherry inh -5%.
O=[N+]([O-])c1cnc2nc(-c3ccncc3)nn2c1O was read as Vaccinia Venus -4% and VACV mCherry inh -3%.
`C=CCNC(=O)C1CCCN(S(=O)(=O)c2ccc(-n3cnnn3)cc2)C1` (configuration not stated) gave Vaccinia Venus -3% and VACV mCherry inh inconclusive.
Screening CCOC(=O)C1(C)C=C(Nc2cccc(C(=O)O)c2)C(=O)N1c1ccccc1 (configuration not stated) returned Vaccinia Venus -1% and VACV mCherry inh -10%.
`CC[C@]12c3[nH]c4cc(-c5ccco5)ccc4c3CCN1C(=O)[C@@H](CC(=O)NC(C)(C)C)C[C@@H]2C(=O)N1CCN(C(=O)c2ccco2)CC1` gave Vaccinia Venus inconclusive and VACV mCherry inh -20%.
Screening COc1ccc(CCN(C)C(=O)c2cc(S(=O)(=O)N3CCCCC3)ccc2Cl)cc1OC returned Vaccinia Venus -9% and VACV mCherry inh inactive.
For CC(C)c1ccc2[nH]c(O)c(N=NC(=O)c3cccc(S(=O)(=O)Nc4ccc(Cl)cc4)c3)c2c1 the results were Vaccinia Venus -9% and VACV mCherry inh inactive.
`C#CCn1c(=NC(=O)CN2C(=O)CCC2=O)sc2cc(S(N)(=O)=O)ccc21` gave Vaccinia Venus -7% and VACV mCherry inh -13%.
C/C=C/c1ccc(OCC(=O)OCc2csc(Nc3ccc(C)cc3)n2)c(OC)c1 was read as Vaccinia Venus -1% and VACV mCherry inh -10%.
